Source: PubChem
Lassa entry inh – blocks Lassa virus binding to or entry into cells; Lassa virus pseudotype entry inhibition, cell reporter; control for the full effect not named in the record; Potency, µM (doses to about 37.9 µM), inactives show at the top dose activity change, negative = inhibition, most hits filed as inhibitors; 300,000 tested, 1.2% active; active means well fitted inhibition curve with a large enough effect; inconclusive means small, poorly fitted or top-dose-only effect, or effect the other way; inactive means flat fitted curve, though single readings scatter; tested in HEK293 cells; further: on the % scale 0 is the no-effect control and ±100 the full control effect; nearly all actives have a fitted effect of over 50% in size; luciferase read-out
StopGo reporter – FMDV 2A StopGo reporter, luciferase signal | 410,000 tested, 1.2% active | Potency, µM (highest dose often 57.9 µM), for the others: at the highest dose signal change, negative = less light | human cells with a luciferase reporter of 2A StopGo recoding; control for the full effect not named in the record; active = well fitted falling curve with a large enough effect; inconclusive = small, poorly fitted or top-dose-only effect; inactive = no such curve, though single readings can be large or run the other way; tested in HEK293T cells; further: on the % scale 0 is the no-effect control and ±100 the full control effect; nearly all actives have a fitted effect of over 45% in size; luciferase light after 4 h
RE007 growth inh – less growth of the S. pombe RE007 Vpr strain | S. pombe RE007 Vpr strain, BacTiter-Glo ATP luminescence, 24 h; control for the full effect not named in the record | Potency, µM (series often up to 92.2 µM), without a hit: at the highest dose activity change, negative = less growth | 360,000 tested, 0.21% active | AID 651644; active = well fitted falling curve with a large enough effect; inconclusive = small, poorly fitted or top-dose-only effect; inactive = no such curve, though single readings can be large or run the other way;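 further: on the % scale 0 is the no-effect control and ±100 the full control effect; nearly all actives have a fitted effect of over 50% in size; the assay follows cell death caused by Vpr and the record does not say whether a fall means rescue or toxicity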
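Fission yeast strain RE007, carrying one chromosomally integrated HIV-1 vpr copy, was seeded at OD 0.01 in PMG+AL medium with 23 nL pinned compound. After 24 h at 30 °C and 99% humidity, viability was read by BacTiter-Glo luminescence.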
NS1 inh – influenza NS1 inhibition | S. cerevisiae slowed by influenza A NS1, growth recovery by OD600 | Potency, µM (top dose mostly 46.1 µM), for inactives: at the highest dose activity, positive = more growth | 270,000 tested, 0.4% active; active means well fitted rising curve with a large enough effect; inconclusive means small, poorly fitted or top-dose-only effect; inactive means no such curve, though single readings can be large or run the other way; further: nearly all actives have a fitted effect of over 50% in size
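Compounds were scored for reversing the slow growth caused by influenza A NS1 in S. cerevisiae, measured by optical density at 600 nm. Assay medium contained 2% galactose at pH 6.0; NS1-free yeast of the same strain were the positive control.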
Cruzain noTriton – blocks cruzain activity in detergent-free assay; P25779; purified cruzain, Z-FR-AMC fluorescence, no detergent; 200,000 tested, 2.3% active; AID 1476; Potency, µM, inactives show max response, negative = inhibition, hits mostly inhibitors;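 further: plate controls were enzyme without inhibitor for no effect and buffer without enzyme for full effect; nearly all actives have a fitted effect of over 40% in size; top concentration of the series not given in the record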
Target sequence (P25779 123-467 limits assumed): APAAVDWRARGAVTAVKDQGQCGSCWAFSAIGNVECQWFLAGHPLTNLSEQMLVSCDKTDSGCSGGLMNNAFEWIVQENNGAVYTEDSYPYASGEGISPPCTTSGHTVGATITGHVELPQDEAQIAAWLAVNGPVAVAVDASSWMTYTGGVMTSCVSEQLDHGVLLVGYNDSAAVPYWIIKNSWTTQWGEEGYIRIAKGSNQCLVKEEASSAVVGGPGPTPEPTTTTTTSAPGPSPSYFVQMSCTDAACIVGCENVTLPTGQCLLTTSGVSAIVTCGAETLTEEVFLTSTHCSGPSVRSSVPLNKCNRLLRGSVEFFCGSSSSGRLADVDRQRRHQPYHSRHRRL
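Purified cruzain at 1.5 nM, pre-incubated 15 min with compound at room temperature in 100 mM sodium acetate pH 5.5, 5 mM DTT, 0.00005% Triton X-100. Reaction started with 2 uM Z-FR-AMC; AMC fluorescence increase over 60 s gives rate.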
MARV entry inh – Marburg virus entry inhibition; Marburg virus pseudotyped entry inhibition, cell reporter; control for the full effect not named in the record; about a third of the inactives were read at about 46 µM; Potency, µM (highest dose often 37.8 µM), without a hit: top-dose activity change, negative = inhibition, actives largely listed as inhibitors; 300,000 tested, 1.8% active; AID 540276; active = well fitted inhibition curve with a large enough effect; inconclusive = small, poorly fitted or top-dose-only effect, or effect the other way; inactive = flat fitted curve, though single readings scatter; tested in HEK293 cells; about a fifth of its hits are not listed in these tables; further: on the % scale 0 is the no-effect control and ±100 the full control effect; luciferase read-out
Cruzain Triton – blocks cruzain activity in presence of Triton detergent | P25779 | AID 1478 | 200,000 tested, 0.43% active | purified cruzain, Z-FR-AMC fluorescence, 0.01% Triton | Potency, µM, for the others: max response, negative = inhibition, usual class: inhibitors;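 further: plate controls were neutral wells for no effect and buffer without enzyme for full effect; nearly all actives have a fitted effect of over 40% in size; top concentration of the series not given in the record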
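Enzyme 1.5 nM, Z-FR-AMC 2 uM, NaOAc 100 mM pH 5.5, DTT 5 mM, Triton X-100 0.01%; 15 min RT compound preincubation; kinetic ex360/em450, 60 s delta.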
SARS PLpro yeast – blocks SARS-CoV papain-like protease in a yeast assay; 330,000 tested, 0.19% active; Potency, µM (highest dose often 32.9 µM), inactives show top-dose activity, positive = growth rescue; AID 485353; S. cerevisiae expressing SARS-CoV PLpro, growth rescue; control for the full effect not named in the record; active means well fitted rising curve with a large enough effect; inconclusive means small, poorly fitted or top-dose-only effect; inactive means no such curve, though single readings can be large or run the other way; further: 0% is about no effect; nearly all actives have a fitted effect of over 55% in size; growth read by luminescence after 48 h
Starred values were filed as active, the others as inactive; ? = inconclusive; . = not tested or not shown; & = joins results of further samples; [ ] = remark or other dose. Unless noted, the call rests on the fitted dose curve; in most records, active means well fitted curve in the direction sought with a large enough effect; inconclusive means small, poorly fitted or top-dose-only effect, or another doubt; inactive means no such curve, though single readings can be large; an effect the other way counts as inactive or inconclusive. Potency means the concentration at half of the fitted maximal effect.

SMILES | Lassa entry inh | StopGo reporter | RE007 growth inh | NS1 inh | Cruzain noTriton | MARV entry inh | Cruzain Triton | SARS PLpro yeast
O=S(=O)(c1ccccc1S(=O)(=O)N1CCCCC1)N1CCCCC1 | -1% | 18% | -2% | ? | 5% | 2% | 2.9% | 0%
COCCNC(=O)c1onc(CSc2cccc(OC)c2)c1C(=O)O | . | -7% | 15% | 13% | -4% | . | 4.4% | 7%
COc1ccccc1NC(=O)c1cc2c(C)nn(-c3ccccc3)c2s1 | -19%[46.1 µM] | -12% | . | . | -7% | ? | -1.0% | .
Cc1ccc(Cl)c(OCC(=O)Nc2ccccc2C(=O)NC2CC2)c1 | . | -23% | 4% | 6% | . | . | . | 2%
O=C(N/N=C/c1ccncc1)/C(=C/c1ccccc1)NC(=O)c1ccccc1 | -20% | -1% | -6% | 6% | 2% | ? | -1.1% | 0%
CCCn1c2c(c(O)c(C(=O)Nc3ccccc3)c1=O)CCCC2 | -8% | 6% | -1% | -13% | -20% | 4% | -1.5% | 1%
CCC(=O)N1CCc2cc(Br)cc(S(=O)(=O)N3CCCCCC3)c21 | -11% | -30% | -19% | -32% | ? | 4% | -5.9% | -76%
CCCc1nnc(NC(=O)CCC(=O)N2CCN(C3c4ccccc4-c4ccccc43)CC2)s1 | 17% | -18% | . | 16% | ? | -22% | -9.8% | 4%
O=C(CSc1ncnc2c1oc1ccccc12)Nc1nc2ccccc2s1 | . | ? | -4% | 0% | -7% | . | -0.7% | -2%
O=c1[nH]c(CSc2ccccn2)nc2c1cnn2-c1ccccc1 | 1% | 0% | -8% | -14% | -4% | 20% | -2.0% | 11%
O=C(NC(=S)Nc1ccccc1N1CCOCC1)c1ccc(Br)cc1 | . | 0% | 1% | 3% | . | . | . | 0%
CCCN1C(C(=O)c2ccccc2)=C(OC(=O)COc2ccccc2)c2ccccc2S1(=O)=O | -18%[46.1 µM] | -4% | . | . | -27% | ? | -7.5% | .
FC(F)(F)c1cccc(-c2ccc(-c3csnn3)o2)c1 | 1% | 33%[activator] | -15% | -11% | -2% | 4% | -7.5% | 6%
CCOc1cc(/C=N/NC(=O)c2cc(-c3cccc(OC)c3)nc3ccccc23)ccc1O | ? | ? | -8% | . | . | ? | . | .
Cc1ccc(NC(=O)C(=O)NCC(c2ccc3c(c2)OCO3)N2CCOCC2)c(C)c1 (stereo not drawn) | -3%[46.1 µM] | -10% | . | . | -7% | . | -1.2% | .
Cc1cccc(N(C(=O)c2snc(C(N)=O)c2N)C(C(=O)NCC2CCCO2)c2c[nH]c3ccccc23)c1 (stereo not drawn) | ? | -5% | 10% | 5% | . | ? | . | -2%
COc1ccc2c(c1)C(C)CC(C)(C)N2C(=O)CSc1ncn[nH]1 (stereo not drawn) | -2% | -5% | -1% | -5% | -3% | -2% | -5.7% | -1%
CCOc1ncccc1C(=O)OCC(=O)NCCCc1ccccc1 | 16% | -10% | 9% | . | . | ? | . | -4%
O=C(NN=Cc1ccccc1O)NN=Cc1ccccc1O | ? | 23% | 3% | . | . | 4µM* | . | .
CN(C)CCN[C@H]1CCC2C3CC=C4C[C@@H](O)CC[C@]4(C)C3CC[C@@]21C (stereo partly drawn) | ? | -18% | -11% | . | . | ? | . | -1%
O=C(NCCCCNC(=O)c1ccc(F)cc1)c1ccc(F)cc1 | . | 1% | -7% | 20% | . | . | . | -3%
CCC(C)NC(=O)C1CCN(S(=O)(=O)CC)CC1 (stereo not drawn) | 0% | . | -10% | -6% | 9% | ? | 1.9% | 7%
COc1ccc(C(=O)NNC(=S)NC2CCCCC2)cc1OC | 5% | . | -2% | -3% | -8% | 3% | 0.6% | 0%
CCCOC(=O)CN1C(=O)c2ccccc2C1=O | -1% | 20% | 77% | -12% | 1% | -1% | 0.4% | 5%
CCSc1nnc(CNc2ccc(F)cc2)n1CC1CCCO1 (stereo not drawn) | -11% | 0% | 2% | 1% | -1% | 2% | 4.3% | 9%

(cont.)
SMILES | Lassa entry inh | StopGo reporter | RE007 growth inh | NS1 inh | Cruzain noTriton | MARV entry inh | Cruzain Triton | SARS PLpro yeast
CCOC(=O)C1=C(CSc2nc3c(cc2C#N)CN(C)CC3)OC(N)=C(C#N)C1c1ccc(F)cc1 (stereo not drawn) | 13% | 0% | -12% | 10µM* | -6% | ? | -12% | -9%
CCOc1ccc(CN2CCN(CCCc3ccccc3)C(CCO)C2)cc1 (stereo not drawn) | . | 0% | -9% | -1% | . | . | . | 2%
Cc1c(NC(=O)CSc2nnnn2-c2ccc(C(=O)O)cc2)c(=O)n(-c2ccccc2)n1C | -6% | -6% | 31% | 6% | . | 16%[46.1 µM] | . | 1%
CCOc1ccc(/C=N/NC(=O)c2nnn(-c3nonc3N)c2COc2ccc(F)cc2)cc1 | ? | -4% | 0% | 1% | . | ? | . | -2%
COc1ccc(C(CNC(=O)c2cccc(S(=O)(=O)N3CCOCC3)c2)N2CCOCC2)cc1 (stereo not drawn) | 15% | -6% | -20% | . | . | -7% | . | 8%
COc1ccc(-c2cc(C(F)(F)F)nc(SCCC(=O)Nc3ccc(O)cc3)n2)cc1 | -9%[46.1 µM] | -25% | . | . | 5% | -2%[46.1 µM] | -14% | .
CCOc1ccc(-c2nnc(SCC(=O)Nc3cc(C)ccc3OC)o2)cc1 | 15%[46.1 µM] | -24% | . | . | ? | 2%[46.1 µM] | 32µM* | .
N#CC(C(=O)OC1CCCCC1)c1nc2ccccc2nc1N1CCCCC1 (stereo not drawn) | . | . | . | 6% | ? | . | -2.7% | 2%
CCCCc1ccc(NC(=O)NCc2ccccn2)cc1 | ? | 8% | 5% | 7% | . | 5%[46.1 µM] | . | -9%
COc1ccc(C(=O)N/C(=C\c2ccccc2)C(=O)NC(CC(C)C)C(=O)O)cc1 (stereo not drawn) | 12% | -11% | 5% | . | . | ? | . | -4%
O=C(CSc1ncnc2c1oc1ccccc12)Nc1cccc(F)c1 | -8% | -3% | 8% | -14% | -7% | -5% | -3.7% | 3%
CS(=O)(=O)Nc1ccc(C(=O)N2CC(=O)Nc3ccccc32)cc1 | -25% | -4% | -1% | 5% | . | 9% | . | 9%
CN1CC(C(=O)Nc2ccc(F)c(Cl)c2)CC1=O (stereo not drawn) | 7% | -1% | 0% | 21% | . | 2% | . | 2%
Cc1ccc2nc(SCC(=O)NCCc3ccccc3)nc(=O)n2c1 | -4% | -27% | 3% | . | . | -8% | . | 6%
COc1ccc(-n2c(=S)[nH]c(=O)c3cccnc32)cc1 | -15%[46.1 µM] | 11% | 6% | 3% | . | 1%[46.1 µM] | . | 2%
CCC(=O)O[C@@H]1[C@@H](OC(C)=O)[C@@]2(O)C(C[C@H](O)C2(C)C)[C@](C)(O)[C@H]2CC[C@@H]3[C@@H](O)[C@]12C[C@@]3(C)O (stereo partly drawn) | -3% | -11% | -5% | 6% | -3% | -13% | 3.1% | 4%
Cc1ccc(-c2nnc(Nc3ccc(O)cc3)c3ccccc23)cc1S(=O)(=O)N1CCCCC1 | 1%[46.1 µM] | -7% | . | . | -9% | . | -1.3% | .
COc1cc(C(=O)OCCNC(=O)c2ccccc2)cc(OC)c1OC | ? | -4% | -5% | -3% | . | ? | . | 0%
Cc1nc2c(Cl)cccc2c2c1CC(CBr)O2 (stereo not drawn) | . | ? | -10% | -7% | . | . | . | -1%
Cn1cnc([N+](=O)[O-])c1Oc1ccc2ccccc2c1 | ? | 18µM* | -11% | -6% | 3% | ? | -3.4% | 18%
CC(C)c1nnc(SCC(=O)NC2CCCCC2)n1C | 2%[46.1 µM] | -2% | 1% | 6% | . | ? | . | 0%
COc1ccc(S(=O)(=O)NCc2ccncc2)cc1NC(=O)c1ccccc1 | -5% | -19% | 2% | . | . | ? | . | 3%
CCCn1c(SCC(N)=O)nc2c(c1=O)C1(CCCC1)Cc1ccccc1-2 | -21% | ? | 0% | 16% | 12% | -11%&-11% | -11% | 3%
Cc1csc(NC(=O)c2cc([N+](=O)[O-])cc([N+](=O)[O-])c2)n1 | -5% | -26% | 0% | ? | -15% | 1% | -7.4% | -3%
COC(=O)N/N=C(\C)c1cccs1 | . | 12% | 18% | 5% | . | . | . | 1%

Following part:
SMILES | Lassa entry inh | StopGo reporter | RE007 growth inh | NS1 inh | Cruzain noTriton | MARV entry inh | Cruzain Triton | SARS PLpro yeast
C[C@@H]1C[C@@H]2O[C@H]2/C=C\C=C\C(=O)Cc2c(Cl)c(O)cc(O)c2C(=O)O1 | . | 0.1µM* | 6% | -44% | . | . | . | -3%
O=c1c(-c2ccccc2Cl)c[nH]n1-c1ccccc1 | -4%[46.1 µM] | -12% | 22% | -65% | . | 26%[46.1 µM] | . | -1%
Cc1ccc(NC2=C(Cl)C(=O)OC2NC(=O)c2ccccc2)cc1 (stereo not drawn) | -3% | -25% | -8% | 4% | -18% | 1% | -1.4% | -8%
CC(C)[C@H](NC(=O)[C@@H]1CSC2c3ccccc3C(=O)N21)C(=O)NCc1ccco1 (stereo partly drawn) | 2%[46.1 µM] | 1% | 9% | 19% | . | 6%[46.1 µM] | . | 23%
CC[C@]12c3[nH]c4cc(-c5ccco5)ccc4c3CCN1C(=O)[C@@H](CC(=O)NCCC1=CCCCC1)C[C@@H]2C(=O)N1CCN(C(=O)c2ccco2)CC1 | . | ? | 23% | . | . | 5% | . | 3%
Oc1ccccc1-c1cc(-c2ccccc2Cl)[nH]n1 | 10µM* | -20% | ? | -104% | -2% | -16% | -13% | .
CCn1c(COc2cccc3cccnc23)nnc1SC(F)F | -24%[46.1 µM] | -11% | 8% | 2% | . | 1%[46.1 µM] | . | 2%
O=C(CCSc1ccc(Cl)cc1)NCc1ccncc1 | 0%[46.1 µM] | -5% | -11% | . | . | 18%[46.1 µM] | . | 1%
COc1ccc(C(=O)NCc2csc(C)n2)cc1OC1CCN(C(C)=O)CC1 | 15% | -13% | 7% | . | . | ? | . | .
c1coc(C2Nc3cccc4cccc(c34)N2)c1 | . | . | . | -44% | 7.9µM* | . | -11% | -4%
